# AF4-AF9 inh: inhibitors of human MLL-AF4/AF9 interaction | P42568 | AlphaScreen, biotin-AF4 peptide binding to FLAG-AF9 | inhibition, % at 10 µM | actives 0.47% (n = 350,000) | AID 651704;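 active means every replicate reaching a set inhibition limit, whatever the replicate mean, cut at about 25% in these data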;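 further: 0% = plate neutral control median and 100% = total signal loss; the record names both 10 and 1 µM as test concentration; the first replicate is given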
# Target sequence (P42568 whole entry, looked up): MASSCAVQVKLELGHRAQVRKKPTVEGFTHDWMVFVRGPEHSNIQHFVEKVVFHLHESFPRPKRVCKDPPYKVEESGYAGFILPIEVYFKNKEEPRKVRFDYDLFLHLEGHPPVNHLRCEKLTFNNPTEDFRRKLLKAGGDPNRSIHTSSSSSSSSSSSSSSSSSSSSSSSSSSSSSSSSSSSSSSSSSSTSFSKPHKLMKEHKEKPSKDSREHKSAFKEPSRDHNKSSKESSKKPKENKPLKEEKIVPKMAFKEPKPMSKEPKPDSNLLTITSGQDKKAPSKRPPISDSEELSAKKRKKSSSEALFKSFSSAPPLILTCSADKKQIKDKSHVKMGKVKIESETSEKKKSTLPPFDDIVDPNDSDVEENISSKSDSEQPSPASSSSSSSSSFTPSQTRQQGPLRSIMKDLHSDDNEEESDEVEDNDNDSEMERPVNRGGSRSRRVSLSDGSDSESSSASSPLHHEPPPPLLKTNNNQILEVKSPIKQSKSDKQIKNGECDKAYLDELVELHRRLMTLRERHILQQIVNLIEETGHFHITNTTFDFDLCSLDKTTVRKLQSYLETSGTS
# FGF22 binding: binders of recombinant human FGF22 by thermal shift; Q9HCT0; SYPRO orange fluorescence; percent of sucrose octasulfate shift, DMSO zero; calls only at 9.99 µM; actives 1.5% (n = 340,000); AID 651658;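 active means melting point raised past a set limit in the mean and every replicate; three in four hits are not shown here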
# Target sequence (Q9HCT0 whole entry, looked up): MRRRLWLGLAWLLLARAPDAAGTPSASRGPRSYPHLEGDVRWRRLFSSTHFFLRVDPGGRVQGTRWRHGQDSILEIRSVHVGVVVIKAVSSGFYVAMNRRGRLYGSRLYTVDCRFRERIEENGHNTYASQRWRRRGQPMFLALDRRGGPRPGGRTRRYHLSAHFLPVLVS
# rRNA inh HTS: selective bacterial rRNA inhibition in E. coli; actives 1.6% (n = 350,000); E. coli WT GFP vs humanized-ribosome RFP mutants, fluorescence, 24 h; active compounds read low; DMSO median 0, no signal -100; GFP signal change (wild-type ribosome), % (no concentration beside the values);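 active means significant combined selectivity score with lowered wild-type GFP, culture density cut under 30%, mutant RFP and density less affected; inactive means any of these conditions unmet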; further: one replicate is shown; some compounds called inactive have numbers as strong as hits
# rRNA inh HTS OD600: second read-out of rRNA inh HTS, no call of its own (marks repeat the call); OD600 change, %; measured here: OD600 growth;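 optical density of the mix in the first replicate; 0 = DMSO median and -100 = no signal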
# rRNA inh HTS RFP: also measured in rRNA inh HTS; calls as there; RFP signal change, %; measured here: RFP humanized mutant strains;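 first replicate; 0 = DMSO median and -100 = no signal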
# Numbers without * were called inactive; i = inactive; nt = not tested or not shown; + = active, no number.
No.	molecule	AF4-AF9 inh	FGF22 binding	rRNA inh HTS	rRNA inh HTS OD600	rRNA inh HTS RFP
1	O=C(COC(=O)Cc1cccc(C(F)(F)F)c1)NCc1ccco1	2.5	i	-1.3	12.2	2.0
2	O=C(c1ccccc1F)N1CC[C@@H]2[C@H](CO)Nc3ccc(C#Cc4ccccc4)cc3[C@@H]21	-13.8	i	-3.7	11.1	-1.7
3	C#CCN1C=CC(=O)[C@@H](OC(=O)Nc2ccc(Cl)cc2)[C@H]1c1ccccc1Br	2.1	i	0.6	-39.6	15.8
4	Cn1cnc(S(=O)(=O)N2CC[C@@H]3[C@@H](CO)Nc4ccc(-c5ccccc5)cc4[C@@H]32)c1	7.5	i	-3.0	-0.7	1.9
5	C[C@@H]1CCCCO[C@@H](CN(C)S(C)(=O)=O)[C@H](C)CN([C@H](C)CO)C(=O)c2cc(NC(=O)Cc3ccccc3)ccc2O1	-1.6	i	0.4	-0.3	-1.1
6	C[C@H]1CN([C@@H](C)CO)C(=O)c2ccccc2-c2ccccc2CO[C@H]1CN(C)C(=O)CCC(F)(F)F	-5.8	i	-0.2	2.1	-0.6
7	C[C@H](NC(=O)C[C@H]1C=C[C@H](NC(=O)C2CC2)[C@H](CO)O1)c1ccccc1	0.2	i	3.6	2.7	0.0
8	Cc1cc(C(=O)Nc2cccc3c2O[C@H](CN(C)S(C)(=O)=O)[C@@H](C)CN([C@H](C)CO)C3=O)n(C)n1	-0.8	i	3.8	10.5	-0.7
9	O=c1c2cc(C(F)(F)F)ccc2sn1-c1ccccc1	-10.6	i	-36.1	-82.1	-21.6
10	O=C(NCC[C@H]1CC[C@@H](NC(=O)C2CCCC2)[C@@H](CO)O1)c1cnccn1	-2.7	i	3.4	-1.5	-1.9
11	CN(Cc1ccccc1)C(=O)c1cccc(NC(=O)Cc2ccc(NC(=O)C3CCCN(C(=O)c4ccccc4)C3)cc2)c1 (stereo not given)	-6.2	nt	-5.1	-9.6	1.6
12	Cc1ccc(S(=O)(=O)Nc2cccc3c2O[C@H](CN(C)Cc2ccc(C(=O)O)cc2)[C@H](C)CN([C@H](C)CO)C3=O)cc1	26.5*	i	4.2	4.4	-0.6
13	Clc1cccc(CNc2ccn3nc(-c4cccs4)cc3n2)c1	-3.2	i	-58.0	-70.2	-2.6
14	CCCNC(=O)Nc1ccc2c(c1)C(=O)N(C)C[C@@H](OC)[C@@H](C)CN(Cc1cccnc1)[C@@H](C)CO2	-2.0	i	-1.4	2.6	-0.6
15	COc1ccc(NC(=O)Nc2ccc3c(c2)C(=O)N([C@H](C)CO)C[C@H](C)[C@@H](CN(C)C(=O)Nc2ccc(F)cc2)OCCCC[C@H](C)O3)cc1	0.3	i	-4.0	-7.5	0.5
16	CC(C)C#Cc1cnc2c(c1)C(=O)N([C@H](C)CO)C[C@H](C)[C@H](CN(C)C(=O)c1cnccn1)O2	-12.0	+	4.4	4.4	-1.9
17	CC(=O)N1C[C@H]2[C@@H](c3ccccc31)[C@@H](CO)N2C(=O)Nc1ccc(F)cc1	-2.5	i	2.4	14.5	-1.7
18	COc1ccc(S(=O)(=O)N(C)C[C@@H]2OCCCC[C@@H](C)Oc3ccc(NS(=O)(=O)c4ccc(C)cc4)cc3C(=O)N([C@@H](C)CO)C[C@@H]2C)cc1	-1.0	i	0.0	-3.3	-4.0
19	CCC(=O)Nc1ccc2c(c1)C(=O)N(C)C[C@@H](OC)[C@@H](C)CN(CC1CC1)[C@@H](C)CO2	-1.4	i	2.2	-2.7	-0.2
20	Cc1ccc(S(=O)(=O)Nc2ccc3c(c2)C(=O)N([C@@H](C)CO)C[C@@H](C)[C@@H](CN(C)Cc2ccncc2)OCCCC[C@H](C)O3)cc1	0.7	i	-0.6	-14.8	-1.3
21	C[C@H]1CN([C@@H](C)CO)C(=O)c2cc(NC(=O)NC3CCCCC3)ccc2O[C@@H]1CN(C)Cc1ccc(C(F)(F)F)cc1	-0.4	i	-0.9	-3.5	4.3
22	Cc1ccc(S(=O)(=O)N(C)C[C@@H]2Oc3c(NC(=O)CCCCCC(=O)Nc4ccccc4N)cccc3C(=O)N([C@H](C)CO)C[C@H]2C)cc1	-0.3	i	-5.4	-11.4	-1.1
23	Cc1ccc(S(=O)(=O)Nc2cccc3c2O[C@H](CN(C)Cc2ccncc2)[C@H](C)CN([C@H](C)CO)C3=O)cc1	0.1	i	0.1	0.4	-2.4
24	CN(C)CC(=O)N[C@@H]1CC[C@@H](CCn2cc(C3CC3)nn2)O[C@H]1CO	-1.3	i	1.8	3.4	-2.0
25	O=C(c1ccccc1)N(C(=O)c1ccccc1)c1ccccc1	-4.4	i	7.9	3.5	1.3
26	CC(C)NC(=O)Nc1ccc2c(c1)C(=O)N([C@@H](C)CO)C[C@@H](C)[C@@H](CN(C)C(=O)CCC(F)(F)F)OCCCC[C@H](C)O2	-1.9	i	-3.4	-4.5	-1.3
27	COCC(=O)N1CC(=O)N2[C@@H](CO)[C@H](c3ccc(-c4ccccc4F)cc3)[C@@H]2C1	-3.7	i	1.3	-0.5	-1.7
28	COc1ccc(S(=O)(=O)N(C)C[C@H]2OCCCC[C@H](C)Oc3ccc(NC(=O)c4ccccc4)cc3C(=O)N([C@@H](C)CO)C[C@H]2C)cc1	1.0	i	2.1	7.7	2.5
29	CC(C)NC(=O)Nc1ccc2c(c1)C(=O)N(C)[C@@H]1CC[C@H](CC(=O)Nc3ccccc3)O[C@@H]1CO2	0.9	i	0.7	-5.5	-3.8
30	CCc1c(Cc2ccccc2)ncn1CCc1ccccc1OC	6.3	i	-52.3	-79.0	-15.2
31	C[C@H]1CN([C@@H](C)CO)C(=O)c2cc(NS(=O)(=O)c3ccc(Cl)cc3)ccc2O[C@H]1CN(C)C(=O)Nc1cccc2ccccc12	1.3	i	1.1	-7.3	3.9
32	COCC(=O)N1CCC2(CC1)CN(Cc1nccs1)[C@H](CO)c1c2c2ccc(OC)cc2n1C	-4.2	i	0.4	-3.6	0.2
33	CCOC(=O)C1(C)CCCN1C(=O)c1ccccc1F (stereo not given)	-2.7	i	9.0	10.5	-2.3
34	Cc1noc(C)c1S(=O)(=O)Nc1ccc2c(c1)CC(=O)N([C@H](C)CO)C[C@H](C)[C@@H](CN(C)CC1CCCCC1)O2	6.4	i	-0.8	-19.9	2.8
35	CCCNC(=O)C[C@H]1CC[C@@H]2[C@H](COc3ccc(NC(=O)c4ccc(Cl)cc4)cc3C(=O)N2C)O1	-1.4	i	-3.9	0.5	1.3
36	COCC(=O)N(C)[C@H]1C[C@H]2c3cc(-c4ccccc4)ccc3CCN2C(=O)[C@H]1[C@H](C)O	-0.9	i	-13.5	-8.0	-0.1
37	C[C@@H]1CN([C@H](C)CO)C(=O)c2cc(C#CCC3CCCC3)cnc2O[C@H]1CN(C)CC1CCOCC1	7.9	i	2.4	8.3	-2.7
38	CC(=O)N1CC[C@@H]2[C@H](CO)Nc3ccc(-c4ccc(F)cc4)cc3[C@@H]21	-4.4	i	8.7	-12.9	-3.2
39	CCCN(C)C[C@@H]1Oc2cc(C#Cc3ccc(OC)cc3)ccc2S(=O)(=O)N([C@@H](C)CO)C[C@@H]1C	6.9	i	-0.9	-14.1	21.6
40	COc1ccc(NC(=O)Nc2ccc3c(c2)C(=O)N([C@@H](C)CO)C[C@H](C)[C@H](CN(C)S(=O)(=O)c2ccccc2)OCCCC[C@@H](C)O3)cc1	2.6	i	-1.8	1.0	-2.7
41	CN1CCCCN2[C@H](CO)[C@@H](c3ccc(C#CC4(O)CCCC4)cc3)[C@H]2C1	-2.7	i	6.2	18.8	-4.9
42	CCCN(C)C[C@H]1OCCCC[C@@H](C)Oc2ccc(NS(=O)(=O)c3ccccc3)cc2C(=O)N([C@@H](C)CO)C[C@H]1C	2.3	i	3.5	5.4	0.3
43	COc1ccc(Cn2cc(CN3CCc4onc(-c5ccccc5OC)c4C3=O)nn2)cc1	-0.2	i	-5.4	15.3	9.1
44	CCCNC(=O)C[C@H]1CC[C@H]2[C@@H](COc3ccc(NC(=O)c4ccc5c(c4)OCO5)cc3C(=O)N2C)O1	-2.7	i	0.0	1.1	-0.8
45	COc1cc(-c2coc3c(C(=O)NCc4ccncc4)cccc23)ccc1O	-2.0	i	-7.5	-33.8	-4.0
46	CC(C)NC(=O)Nc1ccc2c(c1)C(=O)N([C@H](C)CO)C[C@H](C)[C@H](CN(C)S(=O)(=O)c1ccccc1)OCCCC[C@H](C)O2	-0.6	i	-2.3	-11.0	-0.9
47	COc1ccc(Cl)cc1C(=O)NC1CC(C)(C)NC(C)(C)C1	-2.2	i	6.2	15.3	0.4
48	C[C@@H]1CN([C@H](C)CO)C(=O)c2cc(NC(=O)c3ccncc3)ccc2O[C@H]1CN(C)Cc1ccncc1	-3.3	i	2.0	3.5	-0.3
49	CC(=O)N1CC2(C1)[C@@H](c1ccccc1)[C@H](CO)N2Cc1cccc(Cl)c1	1.1	i	-0.2	-1.9	1.9
50	COc1ccc(CN(C)C[C@H]2Oc3ccc(NC(=O)Nc4ccccc4)cc3CC(=O)N([C@H](C)CO)C[C@@H]2C)cc1	3.2	i	5.6	3.1	0.4

# (listing goes on)
No.	molecule	AF4-AF9 inh	FGF22 binding	rRNA inh HTS	rRNA inh HTS OD600	rRNA inh HTS RFP
51	C[C@@H]1CN([C@@H](C)CO)S(=O)(=O)c2ccc(C#CC(C)(C)O)cc2O[C@H]1CN(C)Cc1ccc(F)cc1	2.2	i	-21.2	-58.7	19.4
52	O=C(C[C@@H]1CC[C@H]2[C@@H](COC[C@H](O)CN2S(=O)(=O)c2ccc(F)cc2)O1)NCc1ccc(Cl)c(Cl)c1	3.0	i	-46.9	-44.2	-6.2
53	COc1ccc(-c2nc3cc(C)c(Br)c(C)n3c2CC(C)(C)C)cc1OC	2.0	i	17.0	-1.2	1.0
54	COc1ccccc1NC(=O)N1CCCCN2[C@H](CO)[C@H](c3ccc(-c4cccc(C)c4)cc3)[C@H]2C1	7.5	i	-57.1	-68.3	-13.1
55	O=C(N[C@@H]1CC[C@@H](CCn2cc(C3(O)CCCC3)nn2)O[C@H]1CO)C1CC1	-1.7	i	0.1	2.3	-1.1
56	COCCNC(=O)C1(C)CCN(Cc2ccccc2C#N)C1 (stereo not given)	-1.9	i	2.3	5.0	0.1
57	CCNC(=O)C[C@H]1C=C[C@@H](NS(=O)(=O)c2ccc(C)cc2)[C@H](CO)O1	-0.3	i	-1.2	2.1	-2.3
58	COc1ccc(-c2nc3c4ccccc4ccn3c2Cc2ccsc2)cc1OC	2.5	i	-17.4	-4.2	0.9
59	C[C@@H]1CN([C@@H](C)CO)C(=O)c2cc(NC(=O)c3ccncc3)ccc2O[C@@H](C)CCCCO[C@H]1CN(C)C(=O)c1ccncc1	-5.4	i	2.9	10.1	-0.3
60	CC(C)NC(=O)N[C@@H]1CC[C@@H](CCn2cc(-c3ccc(F)cc3)nn2)O[C@@H]1CO	-3.9	i	-0.2	4.8	-3.2
61	CN1[C@@H]2c3ccc(-c4cccnc4)c(=O)n3C[C@@H]2[C@@H](CO)[C@@H]1C(=O)NC1Cc2ccccc2C1	0.5	i	-1.2	4.3	-1.5
62	C[C@H](CO)N1C[C@H](C)[C@H](CN(C)CC2CCCCC2)Oc2c(NC(=O)C3CC3)cccc2C1=O	-2.8	i	2.9	3.1	-2.6
63	COc1ccc([C@@H]2C[C@H]3[C@@H](CN2S(=O)(=O)c2ccccc2)C(=O)C[C@@H](c2cccc4ccccc24)N3S(=O)(=O)c2ccc(C)cc2)cc1	4.0	i	24.7	19.1	1.9
64	CO[C@@H]1CN(C)C(=O)c2ccc(NC(=O)C3CC3)cc2OC[C@@H](C)N(CCc2ccccc2)C[C@@H]1C	2.3	i	0.4	-0.1	1.5
65	O=C(Cn1cnc2c(NCc3ccccc3)ncnc21)NCc1nc2ccccc2[nH]1	-3.5	i	-5.5	-14.9	-4.4
66	COCC#Cc1ccc2c(c1)O[C@H](CN(C)S(=O)(=O)c1ccc(OC)cc1)[C@H](C)CN([C@H](C)CO)S2(=O)=O	3.2	i	-1.6	-8.1	0.2
67	CCCNC(=O)N1C[C@@H](O)COC[C@@H]2O[C@H](CC(=O)NCc3ccc(Cl)c(Cl)c3)CC[C@H]21	-2.4	i	-1.5	-2.4	-0.1
68	CN1CCN(C(=O)C[C@H]2CC[C@H]3[C@@H](COc4ccc(NC(=O)C5CCOCC5)cc4C(=O)N3C)O2)CC1	0.8	i	2.9	12.9	-0.6
69	CCCNC(=O)Nc1ccc2c(c1)C(=O)N(C)C[C@H](OC)[C@H](C)CN[C@@H](C)CO2	-0.5	i	3.3	5.2	-0.9
70	CNC(=O)C[C@@H]1CC[C@@H]2[C@H](COC[C@@H](O)CN2S(=O)(=O)c2ccccc2Cl)O1	-4.9	i	-1.0	-3.5	-6.5

# An excerpt from above in order of their number in AF4-AF9 inh, smallest number first.
entry	molecule	AF4-AF9 inh	FGF22 binding	rRNA inh HTS	rRNA inh HTS OD600	rRNA inh HTS RFP
45	COc1cc(-c2coc3c(C(=O)NCc4ccncc4)cccc23)ccc1O	-2.0	i	-7.5	-33.8	-4.0
1	O=C(COC(=O)Cc1cccc(C(F)(F)F)c1)NCc1ccco1	2.5	i	-1.3	12.2	2.0
52	O=C(C[C@@H]1CC[C@H]2[C@@H](COC[C@H](O)CN2S(=O)(=O)c2ccc(F)cc2)O1)NCc1ccc(Cl)c(Cl)c1	3.0	i	-46.9	-44.2	-6.2

# These rows are one share of the data; rates above refer to the full screens.
